# Screening results (PubChem BioAssay)
# KCNQ2 pot: potentiators of rat KCNQ2 potassium channel | Potassium voltage-gated channel subfamily KQT member 2 (Rattus norvegicus), O88943 | CHO-K1 KCNQ2, FluxOR thallium flux fluorescence; active compounds read high | B-score at 10 µM | hit rate 0.54% among 310,000;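 active means fluorescence ratio B-score at least 3 SD of library B-scores, with initial fluorescence B-score within 3 SD, cut at about 5.3 in these data; same plate scores as AID 2156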;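 further: B-score of peak minus minimum over baseline fluorescence ratio after K+ and Tl+ stimulus; positive B-score means potentiation of KCNQ2 with more thallium influx and brighter signal; only the inactives scoring about 0 or higher are listed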
# Target sequence (O88943 whole entry, looked up): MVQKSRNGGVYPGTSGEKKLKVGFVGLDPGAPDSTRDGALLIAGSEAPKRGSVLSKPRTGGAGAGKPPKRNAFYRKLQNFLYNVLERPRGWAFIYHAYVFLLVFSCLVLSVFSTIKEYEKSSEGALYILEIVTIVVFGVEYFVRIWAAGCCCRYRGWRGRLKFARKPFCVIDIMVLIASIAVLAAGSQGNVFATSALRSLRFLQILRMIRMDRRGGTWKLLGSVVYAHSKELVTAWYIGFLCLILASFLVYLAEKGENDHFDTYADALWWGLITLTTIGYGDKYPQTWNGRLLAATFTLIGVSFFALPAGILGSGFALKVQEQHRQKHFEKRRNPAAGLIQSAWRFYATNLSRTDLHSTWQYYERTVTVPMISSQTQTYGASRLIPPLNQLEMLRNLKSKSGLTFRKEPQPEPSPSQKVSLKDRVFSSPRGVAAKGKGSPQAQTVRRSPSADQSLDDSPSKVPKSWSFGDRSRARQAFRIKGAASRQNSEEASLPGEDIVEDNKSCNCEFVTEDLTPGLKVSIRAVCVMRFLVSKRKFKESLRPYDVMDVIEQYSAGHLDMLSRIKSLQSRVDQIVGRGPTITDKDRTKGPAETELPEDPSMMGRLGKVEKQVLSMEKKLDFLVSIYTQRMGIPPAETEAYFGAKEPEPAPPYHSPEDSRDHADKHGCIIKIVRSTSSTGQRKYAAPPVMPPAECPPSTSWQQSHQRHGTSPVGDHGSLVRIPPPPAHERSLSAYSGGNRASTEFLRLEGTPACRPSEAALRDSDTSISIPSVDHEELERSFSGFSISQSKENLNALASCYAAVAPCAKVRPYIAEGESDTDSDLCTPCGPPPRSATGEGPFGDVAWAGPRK
# KCNQ2 pot baseline: further read-out of KCNQ2 pot, marked with its call; B-score; compound at 10 µM; measured here: initial fluorescence intensity artifact check;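 brightness before thallium and not channel activity; 0 = typical well and far values either way flag optical interference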
# * = called active by the depositor. An excerpt; the hit share may differ from the screen's.
KCNQ2 pot,KCNQ2 pot baseline,mol
0.69,-0.28,OCCN(CCCn1c(C(F)(F)F)nc2ccccc21)c1nc(CN2CCCCC2)cs1
0.01,-0.27,CCOC(=O)c1cn2nc(Oc3ccc(OC)cc3)ccc2n1
0.07,0.21,COC(=O)c1sc(NC(=O)/C=C/c2ccc(C)o2)nc1C
1.89,-0.74,CN1C(=O)c2ccc(C(=O)NCc3ccccc3)cc2C1=O
0.46,-2.43,Cc1ccc(OCC(O)CN2CCOCC2)cc1C (stereo unspecified)
0.35,-0.08,Cn1cc(C(F)(F)F)nc1-c1ccc(OCC(O)CNCCOc2ccc(O)c(C(N)=O)c2)cc1 (stereo unspecified)
0.79,0.03,O=C1C2C3C=CC(CC3)C2C(=O)N1/N=C/c1ccc(O)c(O)c1 (stereo unspecified)
0.31,-0.13,COC(=O)CNC(=O)C(CCSC)NC(C)=O (stereo unspecified)
2.49,-0.6,CC(C)c1cc(CNC(=O)C2CCC(=O)N(Cc3ccccc3F)C2)on1 (stereo unspecified)
0.68,2.11,CC(=O)CSc1nnc(Cc2ccc([N+](=O)[O-])cc2)o1
0.16,0.95,COc1ccc(NC(=O)CCNS(=O)(=O)c2ccccc2F)cc1S(N)(=O)=O
0.53,0.97,CCN(CC)c1ccc(C(=O)OCC(=O)N2CCCC2)cc1
0.01,-1.21,C=CCNc1cnn(CC(C)=O)c(=O)c1Br
0.9,-0.23,COC(=O)c1ccc(NC(=S)N2CCN(C)CC2)cc1
0.19,-0.39,CCOC(=O)C1(CC2CCCCO2)CCN(Cc2nc(C(C)C)cs2)CC1 (stereo unspecified)
0.06,1.1,N#C/C(=C\c1ccc[nH]1)C(=O)Nc1ccccc1F
0.13,-0.72,NS(=O)(=O)c1ccc(NC2(C(=O)O)CCCC2)cc1
0.42,-0.54,O=C(NCC(=O)N(CC1CCCO1)C(C(=O)NC1CCCC1)c1cccnc1)c1ccco1 (stereo unspecified)
2.01,1.51,Cc1ccc2c(CN3CCOCC3)cc(=O)oc2c1
0.84,-0.05,CCC1=[N+](CC(=O)c2ccc(C)cc2)CCn2c(C)ccc21
1.17,-0.63,COC(=O)CSc1nnc(CNC(=O)c2ccc(OC)cc2OC)n1C
0.24,0,CCN(C(=O)CCN1C(=O)/C(=C/c2ccccc2)SC1=S)C1CCS(=O)(=O)C1 (stereo unspecified)
0.03,0,C=CCN(C(=O)c1csnn1)C(C(=O)NCc1ccccc1)c1ccccc1F (stereo unspecified)
0.22,-0.42,C=CCn1c(SCCOC)nc2c1c(=O)[nH]c(=O)n2C
0.18,0.03,CCOc1ccc(/C=N/NC(=O)C2CC2)cc1OC
1.58,0.2,Brc1ccc(CN2CCSCC2)cc1
2.18,-1.45,CCc1ccc(NC(=O)c2cc(-c3ccco3)on2)cc1
0.38,-0.34,CCOc1cc(C(=O)O/N=C(\N)c2ccccn2)cc(OCC)c1OCC
0.72,-1.34,Cc1cc(C)c(C(=O)NCC(=O)c2ccccc2)c(C)c1
2.77,1.57,O=C(Cc1ccc(F)cc1)Nc1ccc2[nH]ncc2c1
1.26,-0.01,Brc1ccc(-c2nnc(-c3cccc(Br)c3)o2)cc1
0.55,-0.78,CN(Cc1nccs1)C(=O)C1CCC(=O)N(Cc2ccccc2F)C1 (stereo unspecified)
0.06,-0.41,O=C(O)C1C2CCC(C2)C1C(=O)NCCc1cccc(Cl)c1 (stereo unspecified)
0.12,1.81,CN(c1nc(-c2ccccc2)cs1)C1CCS(=O)(=O)C1 (stereo unspecified)
0.74,0.21,O=C(O)CCCCCNC(=O)Nc1ccc2c(c1)OCCO2
11*,-0.01*,Oc1c(CN2CCN(c3ccccn3)CC2)cc(Cl)c2cccnc12
0.38,-1.43,Cc1ccc(NS(=O)(=O)c2c(C)nc3sccn3c2=O)c(C)c1
0.11,0.27,COc1ccc(-n2c(=S)[nH]c3cc(C(=O)NCc4ccco4)ccc3c2=O)c(OC)c1
1.98,-1.09,CC(C)(C)c1cc(NC(=O)CSc2nnc(NCc3ccccc3)s2)n(-c2ccccc2)n1
0.51,-1.96,O=C(NC1CCCCC1)C(c1ccc(F)cc1)N(C(=O)c1cccs1)c1ccc2c(c1)OCO2 (stereo unspecified)
0.35,1.27,Cc1cc(=O)oc2cc(OCc3ccc(S(=O)(=O)N4CCOCC4)cc3)ccc12
1.67,-0.09,Cc1ccc2nc(NC(=O)c3ccc(Br)o3)sc2c1
0.08,0.73,Cc1cc(Nc2cccc([N+](=O)[O-])c2)n2c(nc3ccccc32)c1C#N
1.4,0.03,O=C(NN=C(Cc1ccccc1)Cc1ccccc1)c1ccccc1O
0.01,-0.94,CCCCc1ncc(CN2CCC(n3nccc3NC(=O)c3ccccc3Cl)CC2)[nH]1
0.07,-0.7,CC(=O)N1CCN(S(=O)(=O)c2cccc(C(=O)Nc3nc4c(s3)CCCC4)c2)CC1
0.3,1.2,O=C(C[n+]1ccccc1)c1ccc(Cl)cc1
0.14,0.23,N#CCCCSC1=C(C#N)C(c2ccccc2Cl)CC(=O)N1 (stereo unspecified)
0.61,-0.14,COc1ccc(Oc2coc3cc(OC(=O)/C=C/c4ccc(F)cc4)ccc3c2=O)cc1
0.52,0.26,COc1ccc(-c2noc(CCC(=O)NC3CCCC3)n2)cc1
0.37,-0.58,O=C(O)c1sc2cccc(Cl)c2c1Cl
0.04,0.62,Cc1ccc2c(c1)C1(OCCCO1)C(=O)N2
0.05,-0.05,CCCCC(=O)Nc1cccc(NC(=S)NC(=O)Cc2ccccc2)c1
0.71,-1.19,O=[N+]([O-])c1ccc(-c2nc(-c3ccncc3)no2)cc1
0.82,2.12,COc1ccc(OC)c(C(=O)c2ccc(C(=O)Nc3ccccc3)cc2)c1
0.78,0.2,O=C(c1cc(F)c(F)cc1Cl)N1CCN(c2ncccn2)CC1
1.21,0.16,COc1cc(/C=N/NC(=O)c2ccc3nc[nH]c3c2)ccc1O
0.4,0.24,CN(C)c1cc(-c2ccc([N+](=O)[O-])cc2)oc(=O)c1Cl
0.4,1.06,COc1ccc(C2C(C#N)=C(N)Oc3cc(N)ccc32)cc1OC (stereo unspecified)
1.71,2.02,Cc1ccc(C)c(CSc2ccc3nnc(-c4ccccn4)n3n2)c1

# More results follow:
KCNQ2 pot,KCNQ2 pot baseline,mol
0.37,-1.87,CC(C)(C)c1cc(C(=O)C[n+]2ccc(C(=O)NCCCO)cc2)cc(C(C)(C)C)c1O
0.23,-1.83,N#CC(C(N)=O)=C1CCCCC1
1.4,0.93,CCN(CC)S(=O)(=O)c1ccc(N(C)C)c(NC(=O)CC(NC(C)=O)c2ccccc2)c1 (stereo unspecified)
1.94,-0.87,CC1CCCCC1NC(=S)Nc1cccc(S(=O)(=O)N(C)C)c1 (stereo unspecified)
0.44,-1.6,CC1(C(=O)Nc2nnc(SCc3ccccc3)s2)Cc2ccccc2C(=O)O1 (stereo unspecified)
0.37,1.44,Cc1nc(C)n(C(C)CNS(=O)(=O)c2ccc(Cl)cc2)n1 (stereo unspecified)
0.01,0.92,COc1cccc(C(=O)NCC(=O)OCC(=O)Nc2cc(OC)c([N+](=O)[O-])cc2C)c1
1.26,-0.07,O=C(c1ccco1)N1CCN(S(=O)(=O)c2ccc(S(=O)(=O)NC3CCCCC3)cc2)CC1
0.01,-1.26,O=C(COC(=O)c1cncc(Br)c1)NCc1ccccc1Cl
0.02,-0.87,COc1cc(C(c2c(C)[nH][nH]c2=O)c2c(C)[nH][nH]c2=O)cc(OC)c1OC
0.35,-0.2,Cc1ccccc1C(=O)N/N=C1\SCC(=O)N1Cc1ccco1
0.82,-0.23,COC(=O)CC1C(=O)NC(C)=C1C(=O)OC (stereo unspecified)
0.18,0,Cc1cccnc1NC(=O)CCNC(=O)c1ccc(Cl)cc1
1.79,-2.63,O=C(Nc1cccc2ccccc12)C1CCCC1
2.41,0.96,COc1ccc2c(c1)[n+](=O)c(C(C)=O)c(C)n2[O-]

# Given bar-delimited: 6 of the compounds above.
SMILES | KCNQ2 pot | KCNQ2 pot baseline
O=C(COC(=O)c1cncc(Br)c1)NCc1ccccc1Cl | 0.01 | -1.26
COc1cc(C(c2c(C)[nH][nH]c2=O)c2c(C)[nH][nH]c2=O)cc(OC)c1OC | 0.02 | -0.87
Cc1ccccc1C(=O)N/N=C1\SCC(=O)N1Cc1ccco1 | 0.35 | -0.2
COC(=O)CC1C(=O)NC(C)=C1C(=O)OC (stereo unspecified) | 0.82 | -0.23
Cc1cccnc1NC(=O)CCNC(=O)c1ccc(Cl)cc1 | 0.18 | 0
O=C(Nc1cccc2ccccc12)C1CCCC1 | 1.79 | -2.63

# (cont.)
KCNQ2 pot,KCNQ2 pot baseline,mol
0.45,-0.21,CC1CCN(CCOc2ccc(OCc3ccccc3)cc2)CC1
0.45,0.01,COc1ccc(C(=O)CC(=O)C(=O)Nc2ccccc2C(F)(F)F)cc1
2.78,-3.95,Cn1cc(C(=O)N/N=C/c2cccs2)c2ccccc21
1.84,0.51,C=CCn1cccc(C(=O)Nc2ccc(C)c(C)c2)c1=O
0.06,2,Cc1cc(Br)c2c(c1)/C(=C/C(=O)c1cccs1)C(=O)N2
0.14,-0.17,COc1cccc(NC(=O)N2CCC(N3CCCCC3)CC2)c1
0.57,0.21,COCCN(CC(=O)Oc1ccccc1P(=O)(OC)OC)Cc1ccccc1
1.01,-0.22,CCOc1cc(C=O)ccc1OCc1cc(=O)n2cc(C)ccc2n1
0.91,-0.81,Cc1ccc(CCNC(=O)C2CCN(S(=O)(=O)c3cccc4cccnc34)CC2)cc1
1.26,-2.02,CCOC(=O)C1CN(S(=O)(=O)c2ccc(Cl)cc2)c2cc(S(=O)(=O)CC)ccc2O1 (stereo unspecified)
0.49,0.82,NC(=O)CNC(=O)[C@@H]1CC2(CC(c3ccccc3)=NO2)CN1C(=O)c1ccc(Br)cc1 (stereo partly specified)
0.04,1.12,Cc1nnc(SCc2ccc([N+](=O)[O-])cc2)[nH]c1=O
0.26,-1.84,COc1ccc(C(=O)Nc2c(Cl)cc(Cl)cc2C(=O)N2CCOCC2)cc1
1.16,-0.38,CN(CC(=O)Nc1ccc(Cl)c(Cl)c1)C(=O)/C=C/c1ccc(F)cc1
0.62,0.23,CCOC(=O)c1ccc(NC(=O)CSc2nc3ncccc3[nH]2)cc1
0.06,2.5,O=C(COC(=O)/C=C/c1cn(-c2ccccc2)nc1-c1ccc2c(c1)OCCO2)NC1CCS(=O)(=O)C1 (stereo unspecified)
0.08,-0.85,N#CC1=C2N=C(N)c3ccccc3N2C2=C(C(=O)CCC2)C1c1cccc(Cl)c1 (stereo unspecified)
0.29,1.39,Cc1cc(-c2ccc(N3CCOCC3)cc2)nc2ccccc12
1.46,-0.21,CC(=O)C1=C(O)C(=O)N(CCN2CCOCC2)C1c1ccc(N(C)C)cc1 (stereo unspecified)
0.07,-0.68,Cc1ccc(CNc2ccc3c(c2)ncn3C(C)(C)C)cc1
2.47,-1.83,CCOC(=O)c1ccc(NC(=O)CN2C(=O)CSCC2=O)cc1
0.37,-0.53,COc1ccc(OC)c(CN2CCN(S(=O)(=O)c3ccccc3)CC2)c1
0.01,0.44,S=c1[nH]cc(-c2ccc(Cl)cc2)n1-c1ccccc1
0.56,-2.47,c1coc(C2OCC3(CO2)COC(c2ccco2)OC3)c1 (stereo unspecified)
0.41,0.37,O=C(NCc1ccc2c(c1)OCO2)c1c(O)nc2sccn2c1=O
1.59,-1.73,Cc1c(C(C)(C)C)s/c(=N/S(=O)(=O)c2ccccc2)n1C
1.04,-1.36,O=C(c1ccc2nc(N3CCOCC3)sc2c1)N1CCCC1
0.38,0.65,Cc1ccc(C(=O)CSc2n[nH]c(-c3ccco3)n2)cc1C
0.59,0.41,O=S(=O)(Nc1ccncc1)c1cc(Cl)ccc1Cl
0.71,-1.4,Cc1cccc(OCC(=O)OC(C)CN2CCCCC2)c1 (stereo unspecified)
1.56,-1.01,CNC(=S)N1CCc2ccccc2C1
0.06,0.63,COc1cc2c(cc1OC)C(C(=O)Nc1ccccn1)C(c1cccnc1)N(C)C2=O (stereo unspecified)
0.72,-0.16,CC(C)(C#N)Nc1ccccc1
1.5,-0.33,O=C(COC(=O)c1cc2c(s1)CCCCC2)NC1CCS(=O)(=O)C1 (stereo unspecified)
0.29,1.79,COC(=O)c1ccc(OCCOc2ccc(C(=O)OC)cc2)cc1
2.78,-0.45,CCOC(=O)C1=C(C)N(C)C(=O)NC1c1cccc2ccccc12 (stereo unspecified)
0.87,0.01,CC1(C)C(=O)OC(/C=C\c2cccc([N+](=O)[O-])c2)C(C)(C)C1=O (stereo unspecified)
0.91,-2.9,CN(C(=O)CSc1nc(-c2ccc(F)cc2)cs1)C1CCS(=O)(=O)C1 (stereo unspecified)
0.81,1.33,Cc1cc(F)ccc1S(=O)(=O)NCC1CC2CCC1C2 (stereo unspecified)
1.14,-0.75,CC(=O)OCCCN1C(=O)c2ccc(Br)cc2C1=O
0.9,2.11,CCOc1ccccc1NC(=O)CSc1nnc(CNC(=O)c2ccco2)o1
1.12,0.26,CN(CC(=O)N1CCc2ccccc21)S(=O)(=O)c1ccc(Cl)cc1
1.25,0.74,CCOc1ccc(NC(N)=O)cc1OCC

# Profiles, quoted from the list. Values in the order: KCNQ2 pot | KCNQ2 pot baseline
# `Cc1ccc2c(CN3CCOCC3)cc(=O)oc2c1` as listed: 2.01 | 1.51
# `Cc1ccc2nc(NC(=O)c3ccc(Br)o3)sc2c1` as listed: 1.67 | -0.09

# 5 of the entries above in order of the KCNQ2 pot value, low to high:
KCNQ2 pot,KCNQ2 pot baseline,mol
0.72,-0.16,CC(C)(C#N)Nc1ccccc1
0.81,1.33,Cc1cc(F)ccc1S(=O)(=O)NCC1CC2CCC1C2 (stereo unspecified)
0.87,0.01,CC1(C)C(=O)OC(/C=C\c2cccc([N+](=O)[O-])c2)C(C)(C)C1=O (stereo unspecified)
0.9,2.11,CCOc1ccccc1NC(=O)CSc1nnc(CNC(=O)c2ccco2)o1
2.78,-0.45,CCOC(=O)C1=C(C)N(C)C(=O)NC1c1cccc2ccccc12 (stereo unspecified)
